VDR inh – blocks the human vitamin D receptor | P11473 | VDR-SRC2-3 peptide fluorescence polarization, 2 h | Potency, µM, without a hit: max response, negative = inhibition, most hits filed as inhibitors | 0.93% of 400,000 active; active = well fitted inhibition curve with a large enough effect; inconclusive = small, poorly fitted or top-dose-only effect, or another doubt; inactive = no such curve, though single readings can be large or run the other way; also: series mostly up to about 120 µM
Target sequence (P11473 whole entry, looked up): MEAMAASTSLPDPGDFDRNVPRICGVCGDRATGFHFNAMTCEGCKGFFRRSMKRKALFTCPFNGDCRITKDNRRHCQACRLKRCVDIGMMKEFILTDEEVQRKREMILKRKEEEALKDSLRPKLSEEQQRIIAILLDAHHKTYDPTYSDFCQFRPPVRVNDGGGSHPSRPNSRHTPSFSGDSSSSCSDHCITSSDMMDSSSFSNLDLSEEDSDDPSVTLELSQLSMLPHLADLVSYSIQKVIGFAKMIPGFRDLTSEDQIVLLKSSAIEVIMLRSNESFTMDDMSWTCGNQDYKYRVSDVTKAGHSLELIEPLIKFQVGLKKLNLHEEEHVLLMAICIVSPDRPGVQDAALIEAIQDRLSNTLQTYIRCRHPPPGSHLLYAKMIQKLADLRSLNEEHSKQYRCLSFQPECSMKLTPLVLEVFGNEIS
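FP read-out; VDR + SRC2-3 coactivator peptide; 23 nl compound by pintool; 2 h RT incubation; reagents held at 4 deg C, protected from light.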
Numbers without * were called inactive; ? = inconclusive. % is scaled to controls: 0 for no effect and ±100 for the full control effect; potency is read from the fitted curve at half-maximal effect. These rows are one share of the data; the hit share may differ from the screen's.

CN1CCN(CC(O)COc2ccc(OCC(O)CN3CCN(C)CC3)cc2)CC1 (configuration not stated)
  VDR inh: 12%

CCCc1cc(=O)n2[nH]c(-c3ccco3)nc2n1
  VDR inh: 13%

CC1CCN(S(=O)(=O)c2cccc(C(=O)NCc3ccco3)c2)CC1
  VDR inh: -11%

COC(=O)c1c(-c2ccc(OC)cc2)sc2cc(OC)c(OC)cc12
  VDR inh: 2%

CCCCCCCCNCCS(=O)(=O)NCc1ccccc1OC
  VDR inh: 5%

COc1cc(NC(=O)C/C(C)=N/NC(=O)c2ccccn2)c(OC)cc1Cl
  VDR inh: -23%

O=C(NCCCN1CCOCC1)c1cc2nc(-c3ccco3)cc(C(F)(F)F)n2n1
  VDR inh: -3%

CCOC(=O)CSc1cc(CS(C)(=O)=O)nc(-c2ccccn2)n1
  VDR inh: 2%

O=C(Cc1ccc(Br)cc1)Nc1ccccc1N1CCCC1
  VDR inh: -8%

NS(=O)(=O)c1cccc(NC(=O)COC(=O)CCc2ccccc2)c1
  VDR inh: 3%

CC(C)N(C(=O)[C@H]1C[C@H](CC(=O)NCc2ccco2)C(=O)N2CCc3c([nH]c4cc(-c5ccco5)ccc34)[C@]12C)C(C)C
  VDR inh: -20%

COc1ccc(CN2CCCC2C(=O)Nc2ccc(OC)c(OC)c2)cc1OC (configuration not stated)
  VDR inh: 15%

NC(=O)C1CCN(C(=O)CCCCCn2c(=O)[nH]c3ccsc3c2=O)CC1
  VDR inh: -13%

Cc1ccc(C(=O)NNC(=O)C2CCN(Cc3ccc(Cl)c(Cl)c3)CC2)cc1
  VDR inh: 7%

O=C1NC(c2cn(-c3ccccc3)nc2-c2cccs2)C(C(=O)c2cccnc2)C(O)(C(F)(F)F)N1 (configuration not stated)
  VDR inh: -8%

c1cn2cc(-c3ccc4c(c3)OCO4)nc2s1
  VDR inh: 20µM*

Cc1ccccc1NC(=O)/C=C/c1cccc(C(F)(F)F)c1
  VDR inh: 10%

CCOC(=O)c1ccccc1NC(=O)c1c2c(nc3ccccc13)C(=O)N(C1CCCCC1)C2
  VDR inh: 8%

COc1ccc(Cl)cc1C(=O)OCC(=O)c1ccc[nH]1
  VDR inh: -4%

CCC(=O)Nc1ccc(Cl)c(NC(=S)NC(=O)c2ccco2)c1
  VDR inh: -4%

CC(C)CNC(=O)C(=O)NCC(c1ccc2c(c1)OCO2)N1CCOCC1 (configuration not stated)
  VDR inh: 2%

O=c1c2ccc(Cl)cc2nc2n1CC/C2=C\c1cccc(O)c1
  VDR inh: -13%

COc1ccc(S(=O)(=O)N2CCC3(CC2)OCCN3S(=O)(=O)c2ccccc2)cc1OC
  VDR inh: -17%

O=C(NC12CC3CC(CC(C3)C1)C2)c1cncc(O)c1
  VDR inh: -3%

Cc1cccc(NC(=S)NC(=O)c2ccc(Br)o2)c1
  VDR inh: -9%

COCCn1nnnc1C(c1cc2c(C)cc(C)cc2[nH]c1=O)N1CCCCCC1 (configuration not stated)
  VDR inh: -11%

Cc1ccc(NS(=O)(=O)c2cccc(C(=O)O)c2)cc1S(=O)(=O)N1CCCCC1
  VDR inh: 8%

Cc1ccc(S(=O)(=O)NC(N)=NCCc2ccc(Cl)cc2)cc1
  VDR inh: -23%

Cc1ccc(C(=O)N2NC(c3ccccc3F)C3C(=O)N(c4cccc(C)c4)C(=O)C32)cc1 (configuration not stated)
  VDR inh: -21%

COc1ccc(-n2c(SCC(=O)Nc3cccc(S(N)(=O)=O)c3)nc3ccccc3c2=O)cc1OC
  VDR inh: 8%

COc1ccccc1/C=C1/SC(=S)N(C(C)C(=O)NC2C=CS(=O)(=O)C2)C1=O (configuration not stated)
  VDR inh: -19%

Cc1ccn(S(=O)(=O)c2ccc(C(C)(C)C)cc2)n1
  VDR inh: -12%

COc1ccc(Cl)cc1NC(=O)CSc1nnc(-c2ccncc2)n1CC1CCCO1 (configuration not stated)
  VDR inh: -7%

COC(=O)[C@H]1C[C@@H](c2ccccc2)[C@H](C)C1(C)C
  VDR inh: 6%

CCc1ccc(S(=O)(=O)N/N=C(/C)c2ccncc2)cc1
  VDR inh: 8%

Cc1[nH]n(-c2ccccc2)c(=O)c1N=Nc1c(Cl)cccc1Cl
  VDR inh: 1%

COc1ccc(-c2cc(N3C(=O)Nc4ccccc4N3O)n[nH]2)c(OC)c1
  VDR inh: 5%

CCCCn1c(N)c(N(CCC(C)C)C(=O)C2CSC3(C)CCC(=O)N23)c(=O)[nH]c1=O (configuration not stated)
  VDR inh: -4%

CCOC(=O)N1CCN(C(=O)COc2ccc3ccccc3c2Br)CC1
  VDR inh: -6%

CC(C)(C)c1ccc(C(=O)Nc2ccc3c(c2)C(=O)NC3=O)cc1
  VDR inh: -6%

Fetched one by one from the entries so far (2):
CCOC(=O)N1CCN(C(=O)COc2ccc3ccccc3c2Br)CC1
  VDR inh: -6%

COc1ccc(-c2cc(N3C(=O)Nc4ccccc4N3O)n[nH]2)c(OC)c1
  VDR inh: 5%

The listing continues.
O=C(Cn1c(-c2ccccc2Cl)nc2ccccc21)Nc1cccc(Cl)c1
  VDR inh: -13%

CCOc1ccc(NC(=O)CCCn2nc(C)c3c(C)n(-c4ccccc4)nc3c2=O)cc1
  VDR inh: 2%

O=C(Nc1ccccc1-c1nnn(CC(=O)N2CCCc3ccccc32)n1)c1ccco1
  VDR inh: 10%

COC(=O)c1cccc(CN2C(=O)SC(Nc3ccc(Br)cc3)C2=O)c1 (configuration not stated)
  VDR inh: 1%

O=C(Cn1c2c(c(-c3ccccc3Cl)cc1=O)CCC2)NCCCN1CCOCC1
  VDR inh: 11%

Cc1ccccc1NC(=S)NCc1ccc2c(c1)cc(C)n2C
  VDR inh: -15%

Cc1ccc(C2=Nc3ccccc3N(CC(=O)Nc3ccccc3C)C(=O)C2)cc1C
  VDR inh: 2%

Cc1ccc(NC(=O)c2ccc(OC(F)(F)F)cc2)cc1S(=O)(=O)N(C)C
  VDR inh: 4%

O=C(Cc1sc(-c2ccccc2)nc1-c1ccccc1)Nc1ccc(Cl)cc1
  VDR inh: -5%

CCC(C)N(C(=O)COC(=O)CSc1ccc([N+](=O)[O-])cc1)C1CCS(=O)(=O)C1 (configuration not stated)
  VDR inh: -3%

COC(=O)c1cc(C(=O)OCC(=O)NCc2ccc3c(c2)OCO3)cc([N+](=O)[O-])c1
  VDR inh: -4%

CCN(CC)S(=O)(=O)c1cccc(C(=O)Nc2cccc(C)c2)c1
  VDR inh: 20%

CCCCC1N2CC3([N+](=O)[O-])CN1CC([N+](=O)[O-])(C2)C3(C)C (configuration not stated)
  VDR inh: 4%

CCN1C[C@@H]2[C@@H]3C(=O)N(Cc4ccccc4)C(=O)[C@@H]3[C@](Cc3ccccc3)(C(=O)OC)N2C1=NC
  VDR inh: -11%

O=C(Oc1ccccc1F)c1ccc2c(=O)n3c(nc2c1)CCC3
  VDR inh: -4%

CC(=O)C1=C(C)NC(=O)NC1c1ccccc1OCC(=O)NCCc1ccccc1 (configuration not stated)
  VDR inh: 5%

Cc1cc(C)cc(NC(=O)CCN2C(=O)c3ccccc3C2=O)c1
  VDR inh: -4%

COc1ccc2nc(NCCO)[nH]c2c1
  VDR inh: -3%

CN(CCC1CCOCC1)C(=O)CC1C(=O)NCCN1Cc1ccccc1F (configuration not stated)
  VDR inh: 0%

CCOC(=O)c1ccccc1NC(=O)COC(=O)C1CCN(S(=O)(=O)c2ccccc2C(=O)OC)CC1
  VDR inh: -5%

Cc1ccc(C(=O)N2CCN(c3ccc([N+](=O)[O-])c(N4CCOCC4)c3)CC2)cc1
  VDR inh: 8%

S=c1[nH]nc(-c2cccs2)n1C1CCCCC1
  VDR inh: 9%

CC1CCN(c2ccc([N+](=O)[O-])cn2)CC1
  VDR inh: 1%

Cn1c(SCC(=O)Nc2cc(Cl)cc(Cl)c2)nnc1-c1ccc2nonc2c1
  VDR inh: -2%

Cc1ccc(NC(=O)C2CCCC2)cc1Cl
  VDR inh: -19%

CC(=O)c1ccc(NC(=O)CN(C)S(=O)(=O)c2cc3c(cc2C)NC(=O)CO3)cc1
  VDR inh: 12%

CSCC[C@H](NC(=O)OC(C)(C)C)c1nnc(SCc2cccc(F)c2)o1
  VDR inh: -9%

Cc1ccc(/C=C/C(=O)Nc2ccc(Cl)cc2Cl)cc1
  VDR inh: 7%

Cc1ccc2cccc(OCC(=O)N3CC(C)CC(C)C3)c2n1 (configuration not stated)
  VDR inh: 6%

Cc1ccc(CNC(=O)CCc2ccc(S(=O)(=O)NCC(C)C)cc2)cc1
  VDR inh: -8%

COc1ccccc1NC(=O)CCn1nc(-c2ccccc2OC)c2c(C)cc(C)nc21
  VDR inh: -10%

Cc1cc(=O)n2c(C(=O)Nc3ccc(C)c(Cl)c3)c(C(=O)Nc3ccccc3)sc2n1
  VDR inh: 11%

Cc1oc(-c2ccc(Cl)cc2)nc1CN1CCCC(C(=O)N2CCN(C(=O)c3ccco3)CC2)C1 (configuration not stated)
  VDR inh: 8%

CC(OC(=O)c1cccc(N2C(=O)c3ccccc3C2=O)c1)C(=O)Nc1ccc(N(C)C)cc1 (configuration not stated)
  VDR inh: 4%

CCC(=O)Nc1ccccc1-c1nc2ccccc2n(CC(=O)c2ccc(C)c(C)c2)c1=O
  VDR inh: 0%

CCc1ccc(-c2ccc(SCC(=O)NCC3CCCO3)nn2)cc1 (configuration not stated)
  VDR inh: 2%

CC1CCCCN1C(=O)COC(=O)/C=C/c1ccc2ccccc2n1 (configuration not stated)
  VDR inh: -10%

Cc1ccc2scc(N3CCCC(C)C3)c(=O)c2c1 (configuration not stated)
  VDR inh: 14%

C#CCOc1nc2c(c(=O)n(C)c(=O)n2C)n1Cc1ccccc1
  VDR inh: -4%

Cc1onc(-c2ccccc2)c1C(=O)N1CCC(C)CC1
  VDR inh: 15%

O=C(c1ccc(S(=O)(=O)Nc2ccccc2)cc1)N1CCCC(C(F)(F)F)C1 (configuration not stated)
  VDR inh: 16%

O=C(NNC(=O)C1CCN(Cc2ccccc2)CC1)c1cccs1
  VDR inh: 9%

c1ccc(-c2nnc(SCc3nc4ccccc4[nH]3)n2Cc2ccco2)cc1
  VDR inh: -4%

Cc1cc2oc(=O)cc(CSc3nnc(-c4cccs4)o3)c2cc1C(C)C
  VDR inh: -17%

CC(C)NC(=S)N1CCN(c2ncccn2)CC1
  VDR inh: 2%

CCCCn1c(N)c(N(CCOC)C(=O)c2cc(CC)c(C)s2)c(=O)[nH]c1=O
  VDR inh: -13%

CN(C)C(=O)N1CCCC(C(=O)NCCc2ccccc2)C1 (configuration not stated)
  VDR inh: -3%

COc1ccc(S(=O)(=O)N2CCC(C(=O)N[C@H](C(=O)NCc3ccco3)C(C)C)CC2)cc1
  VDR inh: -29%

CC(=O)c1cccc(NC(=O)C2CCCN(C(=O)c3cnn(-c4ccccc4)c3-n3cccc3)C2)c1 (configuration not stated)
  VDR inh: 16%

COc1ccc(N2CC(C(=O)N[C@H](C(=O)NC3CCCCC3)C(C)C)CC2=O)cc1 (some centres not stated)
  VDR inh: -19%

COc1ccc(C(=O)N/C(=C/c2cccnc2)C(=O)Nc2cccc(C(C)=O)c2)cc1OC
  VDR inh: -14%

CCN1CCN(C(=O)c2ccc(Sc3ccccc3Cl)c([N+](=O)[O-])c2)CC1
  VDR inh: -18%

O=C(CSCc1ccc(Cl)cc1)NN=C1CCCCCC1
  VDR inh: -3%

O=C(O)C1CCC(CNS(=O)(=O)c2ccccc2)CC1 (configuration not stated)
  VDR inh: -7%

Cn1nc(C(=O)Nc2sccc2C(N)=O)ccc1=O
  VDR inh: -9%

O=S(=O)(Nc1ccc(OC(F)(F)F)cc1)c1ccc(N2CCCCS2(=O)=O)cc1
  VDR inh: 6%

CN(CC(=O)Nc1ccc(F)cc1)CC(=O)N1CCCCC1
  VDR inh: 5%

O=C(COC(=O)/C=C/c1ccco1)Nc1cc(S(=O)(=O)N2CCOCC2)ccc1Cl
  VDR inh: 11%

CCn1ncc(Br)c1C(=O)Nc1sc2c(c1C(=O)OC)CCC2
  VDR inh: 5%

Nc1nc(SCC(=O)N2CCCc3ccccc32)[nH]c(=O)c1-c1ccccc1
  VDR inh: 13%

Copied from the results shown for reference:
Cn1nc(C(=O)Nc2sccc2C(N)=O)ccc1=O
  VDR inh: -9%

O=S(=O)(Nc1ccc(OC(F)(F)F)cc1)c1ccc(N2CCCCS2(=O)=O)cc1
  VDR inh: 6%

CN(CC(=O)Nc1ccc(F)cc1)CC(=O)N1CCCCC1
  VDR inh: 5%

(more compounds)
CCCCc1nc2cc(C(=O)N3CCCC3)ccc2o1
  VDR inh: 4%

O=C1CCC[C@@H]2[C@H]3CCC[N+]4([O-])CCC[C@@H](CN12)[C@@H]34 (some centres not stated)
  VDR inh: 5%

Cc1csc(SCc2ccc(C(=O)O)cc2)n1
  VDR inh: 2%

Cc1nc(NCC2CC2)c2nnn(Cc3ccccc3)c2n1
  VDR inh: -17%

COc1cccc(-c2cncnc2N(C)Cc2ccco2)c1
  VDR inh: ?

CCOc1ccccc1Nc1nc2ccccc2[nH]1
  VDR inh: -13%

FC(F)(F)c1ccccc1-c1nc(NCc2cccnc2)c2ccccc2n1
  VDR inh: ?

c1ccc(CSc2ncnc3c2sc2nc(N4CCOCC4)c4c(c23)CCCC4)cc1
  VDR inh: 0%

O=C(O)CNS(=O)(=O)/C=C/c1ccccc1
  VDR inh: 13%

Nc1nc(SCC(=O)Nc2ccc(C(F)(F)F)cc2)[nH]c(=O)c1NC(=O)c1ccc(F)c(F)c1
  VDR inh: -10%

CC(C)(C)c1ccc(C(=O)NCC(=O)OCC(=O)Nc2ccccc2[N+](=O)[O-])cc1
  VDR inh: 10%

COc1cc(/C=C(\C#N)C(=O)NCC2CCCO2)ccc1OCC(N)=O (configuration not stated)
  VDR inh: -11%

COc1ccc(/C=C/C(=O)N(CC(C)C)C2CCS(=O)(=O)C2)cc1 (configuration not stated)
  VDR inh: 6%

COc1ccc(CCN2CCCC(CN(C)C(=O)c3cc(C)oc3C)C2)cc1 (configuration not stated)
  VDR inh: 4%

O=C(c1ccc(S(=O)(=O)Nc2ccc(F)cc2)cc1)N1CCN(C(=O)c2ccco2)CC1
  VDR inh: -11%

Cc1ccccc1C(=O)Nc1ccccc1Sc1ccccc1
  VDR inh: 13%

CCc1cccc(C)c1NC(=S)N1CCCCC1c1cccnc1 (configuration not stated)
  VDR inh: -4%

High-throughput results from PubChem.
